KCNQ2 pot: KCNQ2 (rat) channel potentiation; CHO-K1 KCNQ2, FluxOR thallium flux fluorescence; hits give high values; B-score at 10 µM; 310,000 tested, 0.54% active;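 active = fluorescence ratio B-score at least 3 SD of library B-scores, with initial fluorescence B-score within 3 SD, cut at about 5.3 in these data; same plate scores as AID 2156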;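 also: B-score of peak minus minimum over baseline fluorescence ratio after K+ and Tl+ stimulus; positive B-score means potentiation of KCNQ2 with more thallium influx and brighter signal; only the inactives scoring about 0 or higher are listed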
Target sequence (O88943 whole entry, looked up): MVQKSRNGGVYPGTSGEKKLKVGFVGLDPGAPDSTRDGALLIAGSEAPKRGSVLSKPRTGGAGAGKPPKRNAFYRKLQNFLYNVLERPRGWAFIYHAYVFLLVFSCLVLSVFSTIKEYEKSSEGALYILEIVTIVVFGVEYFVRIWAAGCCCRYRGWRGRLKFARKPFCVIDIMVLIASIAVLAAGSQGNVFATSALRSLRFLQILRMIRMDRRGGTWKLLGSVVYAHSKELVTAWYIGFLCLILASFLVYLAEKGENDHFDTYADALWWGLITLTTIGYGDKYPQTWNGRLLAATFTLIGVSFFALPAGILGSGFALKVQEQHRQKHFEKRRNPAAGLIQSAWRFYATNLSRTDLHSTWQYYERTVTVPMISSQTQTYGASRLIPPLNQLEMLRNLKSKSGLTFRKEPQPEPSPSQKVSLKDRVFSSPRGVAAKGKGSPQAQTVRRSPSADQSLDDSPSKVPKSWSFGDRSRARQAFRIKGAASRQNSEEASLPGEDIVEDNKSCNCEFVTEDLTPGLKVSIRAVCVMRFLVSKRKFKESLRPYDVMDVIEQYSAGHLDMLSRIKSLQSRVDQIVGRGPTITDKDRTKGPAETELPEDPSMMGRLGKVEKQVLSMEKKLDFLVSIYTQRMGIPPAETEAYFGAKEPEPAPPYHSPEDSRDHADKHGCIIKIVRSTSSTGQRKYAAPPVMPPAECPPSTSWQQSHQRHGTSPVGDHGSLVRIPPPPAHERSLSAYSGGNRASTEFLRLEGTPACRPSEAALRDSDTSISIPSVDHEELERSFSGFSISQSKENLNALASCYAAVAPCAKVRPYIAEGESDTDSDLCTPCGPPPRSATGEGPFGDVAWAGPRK
KCNQ2 pot baseline: also measured in KCNQ2 pot; calls as there; B-score; compound at 10 µM; measured here: initial fluorescence intensity artifact check;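 brightness before thallium and not channel activity; 0 = typical well and far values either way flag optical interference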
* marks the source's active call; other numbers are inactive results. This is a subset; count on the stated rates, not on these rows.

Results follow in this order: KCNQ2 pot baseline | KCNQ2 pot
- CCN1CCN(c2nc(-c3ccccc3Cl)nc3ccccc23)CC1
  1.6 | 0.27
- Cc1ccc2cc(C#N)c(NCCNC(=O)C3CC3)nc2c1C
  1.9 | 0.43
- CCOC(=O)NC(=S)Nc1ccc(OC)cc1
  -2.6 | 0.4
- CCC1=[N+](C)CCn2c(C)ccc21
  -2.8 | 0.08
- O=C(NNc1ccc([N+](=O)[O-])cc1)C1C2CCCCC21 (stereo not given)
  -0.89 | 2.6
- O=C(O)c1ccc(/C=N/Nc2ncc(Cl)cc2Cl)cc1
  0.79 | 0.64
- CC(=O)N(C)c1ccc(NC(=O)Nc2ccccc2C)cc1
  0.07 | 0.24
- CCCC1(c2ccccc2)NC(=O)NC1=O (stereo not given)
  -0.65 | 0.16
- O=S(=O)(c1ccccc1F)N1CCC(Oc2ccc(-n3cnnn3)cc2)CC1
  0.13 | 0.06
- O=C(c1ccco1)N1CCN(C2CC(=O)N(c3ccccc3)C2=O)CC1 (stereo not given)
  -0.38 | 0.02
- CCN1CCN(c2cc(C)c3cc(NC(=O)c4cccs4)ccc3n2)CC1
  -1 | 0.6
- O=C(NC1CCCCCC1)c1ccc(CS(=O)Cc2cccc(Cl)c2)o1 (stereo not given)
  0.05 | 0.42
- CCOC(=O)c1sc(=S)n(Cc2ccccc2)c1N
  -0.96 | 0.44
- Cc1ccc(C)c(OCCn2nnc3ccccc32)c1
  1.8 | 0.03
- Cc1oc(C(C)(C)C)cc1C(=O)Nc1ccc(C(=O)O)cc1
  -0.07 | 1.4
- O=C(/C=C/c1cc([N+](=O)[O-])ccc1OC(F)F)Nc1ccc(OC(F)F)cc1
  -0.18 | 0.29
- Cc1cc(C)nc(N2CCC(C(=O)NCc3ccccc3)CC2)n1
  -0.81 | 0.25
- O=C(Nc1nnc(SCc2ccc(Cl)cc2)s1)C1CCCO1 (stereo not given)
  -0.05 | 0.11
- COc1ccc(/C=C/C(=O)N2CCN(c3ccccn3)CC2)cc1OC
  -0.54 | 0.45
- O=C(COC(=O)CN1C(=O)NC2(CCCC2)C1=O)Nc1c(Cl)cccc1C(F)(F)F
  0.09 | 0.73
- COc1ccc(CCNC(=O)CCS(=O)(=O)c2ccc3c(c2)NC(=O)C(C)S3)cc1OC (stereo not given)
  -0.68 | 0.27
- CC1Cc2ccccc2N1C(=O)CN1CCN(Cc2ccccc2)CC1 (stereo not given)
  -0.16 | 1.3
- Cc1ccc(CCNC(=O)NC(C)(C)C)cc1
  1.4 | 0.98
- Cc1ccc(N=C2SC(C(=O)NCCc3ccccc3)CC(=O)N2C)cc1C (stereo not given)
  2.4 | 0.01
- CCOc1ccc2[nH]c(=O)c(CN(Cc3ccccc3OC)C(=O)c3ccccc3)cc2c1
  -1.6 | 0.64
- COc1ccc(NC(=S)Nc2ccccc2SC)c(OC)c1
  -0.8 | 0.54
- Cc1ccccc1CN(C)C(=O)c1ccc2ccccc2n1
  -0.02 | 0.57
- CCCCOC(=O)c1ccc(Nc2ncnc3nc[nH]c23)cc1
  0.61 | 0.53
- CC(C)=CCN1CCN(Cc2ccc(Sc3nncn3C)o2)CC1CCO (stereo not given)
  -1.3 | 0.54
- CCc1ccc(CN2C(=O)CCC2(C)C(=O)NC2CCCC2)cc1 (stereo not given)
  2.6 | 1.7
- Cn1c2c(c(=O)n(C)c1=O)C(NS(=O)(=O)c1ccc(Cl)cc1)(C(F)(F)F)C(=O)N2 (stereo not given)
  -1.9 | 0.88
- Cc1nc(C)n(CC(=O)N2CCCC(C(=O)c3ccc(Cl)cc3C)C2)n1 (stereo not given)
  -0.61 | 0.11
- CCOC(=O)CC(C#N)c1cn(C)c2ccccc12 (stereo not given)
  0.09 | 0.44
- CCCNC(=O)N1c2ccccc2Sc2ccccc21
  0.03 | 0.2
- CCCCNC(=O)CCCCn1c(=S)[nH]c2c([nH]c3ccc(OC)cc32)c1=O
  0.53 | 0.52
- Clc1ccc(-c2nnc3sc(-c4ccc(Br)o4)nn23)c(Cl)c1
  0.53 | 0.5
- C=CCNC(=O)c1ccc(OC)cc1
  -0.19 | 2
- CCOC(=O)C1(Cc2ccccc2C)CCCN(C(=O)CCc2c(C)noc2C)C1 (stereo not given)
  -0.42 | 0.39
- COCCn1c(SCC(=O)c2[nH]c(C)c(C(C)=O)c2C)nc2ccccc2c1=O
  -0.03 | 0.88
- CCc1nc2c(sc3nc4c(cc32)COC(C)(C)C4)c(=O)n1Cc1ccco1
  0.07 | 0.08
- O=C1CCCC2=C1C(c1ccccc1)C1C(=O)c3ccccc3C1=N2 (stereo not given)
  -0.01 | 0.04
- O=C(COc1ccc(Cl)cc1)NC1CC1
  -1.6 | 0.72
- COc1cccc(C(=O)N2CCN(S(C)(=O)=O)CC2)c1
  -0.13 | 0.24
- CC1CN(c2nnc(NC(=O)c3ccccc3)s2)CC(C)O1 (stereo not given)
  2.5 | 0.48
- Cc1ccc(N=C2C(=O)Nc3ccc(C)c(Br)c32)cc1
  0.39 | 0.82
- Cc1nn(C)cc1CNC(=O)/C=C/c1cnn(C)c1
  0.14 | 0.64
- NC(=O)NC(CC(=O)N1CCc2ccccc2C1)c1ccc(Cl)cc1 (stereo not given)
  -2 | 0.77
- CN1CCN(CCNC(=O)Cn2c(=O)c3cccn3c3ccc(F)cc32)CC1
  -1.5 | 0.09
- CSc1nc(C(C)C)ccc1CNC(=O)CC(C)c1ccccc1 (stereo not given)
  0.69* | 30*
- CCCCOc1nc2c(c(=O)n(C)c(=O)n2C)n1C
  1.7 | 0.14
- COCc1cc(C)nc(SCC(=O)Nc2cccc(C)c2)c1C#N
  -1.9 | 1.1
- CCOC(=O)c1csc(NC(=O)CSc2nnnn2-c2ccc(OCC)cc2)n1
  0.06 | 1.3
- Nc1nnc(SCC(=O)OCC(=O)c2ccccc2)s1
  -0.15 | 0.73
- Clc1cccc(Cl)c1-c1nnc2cccc(Cl)n12
  -1.7 | 0.07
- C#CCNC(=O)C1=C[C@@H](C2CC2)C[C@@H](OCCCCO)O1
  -0.27 | 0.1
- CCCCSc1nc2[nH]ncc2c(=O)[nH]1
  -0.8 | 1.1
- CCOC(=O)c1c(C)nc2c(c(SC)nn2-c2ccccc2)c1N
  0.28 | 0.21
- Cc1ccc(NC=C(S(=O)(=O)c2ccccc2)S(=O)(=O)c2ccccc2)cc1
  -0.02 | 0.26
- CCOC(=O)N1CCC(NC(=O)CS(=O)(=O)Cc2nc(-c3ccccc3Cl)oc2C)CC1
  3.6 | 0.01
- CC(=O)c1cccc(NC(=O)c2cccc(S(=O)(=O)N3CCOCC3)c2)c1
  -1.8 | 0.73

Carrying on.
Results follow in this order: KCNQ2 pot baseline | KCNQ2 pot
- CC(C)=CC(=O)NCCc1ccccc1
  -1.2 | 0.3
- O=C(CCN1C(=O)C2C3C=CC(C3)C2C1=O)Nc1ccc(F)cc1 (stereo not given)
  -0.51 | 0.03
- COC(=O)c1ccccc1NC(=O)c1cc[n+](C)cc1
  -0.59 | 0.47
- O=C(CSCc1ccc(Cl)cc1)Nc1ccc(O)cc1C(=O)O
  0.78 | 1.1
- Cc1ccc(NS(=O)(=O)c2c(C(=O)N3CCOCC3)c(C)n(C)c2C)cc1
  0 | 0.78
- CCC(=O)N(C)CCc1cc2c(c(OC)c1/C=N/NC(=O)c1ccncc1)OCO2
  -0.07 | 1.3
- Cc1ccc(NC(=O)C2CCN(S(=O)(=O)c3ccc4c(c3)C(C)(C)C(=O)N4C)CC2)c(C)c1
  0.03 | 1.8
- Cc1ccc(-n2nc3c(=O)n(C(C)C(=O)NC4CC4)nc(C)c3c2C)cc1 (stereo not given)
  -1.5 | 0.02
- CCCCC(=O)N/N=C(C)/C=C/c1ccccc1F
  -0.02 | 1.3
- CCOc1cc(C(=O)Nc2ccon2)cc(OCC)c1OCC
  2.4 | 0.9
- CCn1c(SCC(=O)N2CCN(C(=O)c3ccco3)CC2)nnc1C(C)C
  0.18 | 0.45
- CCC(=O)Nc1ccc(C(=O)NNC(=O)c2cccs2)cc1
  -0.51 | 0.7
- CCc1nc(N2CCN(S(C)(=O)=O)CC2)c2c3c(sc2n1)CCCC3
  -1.7 | 1.2
- COC(=O)C1=C(NC(=O)c2ccccc2C)CCS1
  -0.58 | 0.47
- O=C(Nc1ccc2c(c1)OCCO2)N1CCN(c2ccccc2)CC1
  -1.2 | 1.4
- Cn1c(=N)n(CC(=O)C(C)(C)C)c2ccccc21
  0.04 | 0.48
- Cc1cc(C(=O)CSc2nnnn2-c2ccccc2)c(C)n1CC1CCCO1 (stereo not given)
  -1.7 | 0.06
- CCOc1ccccc1-n1c(=S)sc2c(=O)n(-c3ccc(F)cc3)c(SCC(=O)O)nc21
  -1.1 | 0.03
- Cc1cnc(C(=O)NC(C)CCc2ccccc2)cn1 (stereo not given)
  2.8 | 1.1
- CCOC(=O)N1CCC(Nc2c(NCCCN(CC)Cc3ccccc3)c(=O)c2=O)CC1
  -0.04 | 0.06
- O=C(Nc1ccc2c(c1)OCCO2)c1oc2ccccc2c1NC(=O)C1CC1
  -0.98 | 0.01
- COCCn1c(SCC(=O)N(C)c2ccccc2)nc2c([nH]c3ccccc32)c1=O
  0.26 | 0.11
- CN(Cc1ccccc1)C(=O)COc1ccc2ccccc2c1
  -0.3 | 0.14
- CCc1ccccc1Nc1nc(N)nc(COC(=O)c2cccn2C)n1
  -0.01 | 0.01
- CCCCN1CNC(=S)N(c2cc(C)ccc2C)C1
  1.4 | 3.3
- Cc1nn(Cc2cccc(F)c2)c(C)c1NC(=O)c1c(Cl)cnn1C
  -0.29 | 0.23
- O=C(O)C(Cc1c[nH]c2ccccc12)NS(=O)(=O)c1ccc(Cl)c(C(F)(F)F)c1 (stereo not given)
  1.5 | 0.71
- Clc1ccc(NCn2cncn2)nc1
  -1.2 | 1.3
- CCCC(=O)Nc1ccc(C(=O)NNC(=O)c2ccco2)cc1
  -2 | 1.6
- O=C(c1cnn2c(C(F)F)cc(-c3ccccc3)nc12)N1CCCc2ccccc21
  0.22 | 2.9

Given bar-delimited: part of the list above.
smiles | KCNQ2 pot baseline | KCNQ2 pot
CCCCC(=O)N/N=C(C)/C=C/c1ccccc1F | -0.02 | 1.3
CCOc1cc(C(=O)Nc2ccon2)cc(OCC)c1OCC | 2.4 | 0.9
CCn1c(SCC(=O)N2CCN(C(=O)c3ccco3)CC2)nnc1C(C)C | 0.18 | 0.45
CCC(=O)Nc1ccc(C(=O)NNC(=O)c2cccs2)cc1 | -0.51 | 0.7

(more compounds)
Results follow in this order: KCNQ2 pot baseline | KCNQ2 pot
- Cc1cccc(NC(=O)c2cc(Cl)nc3ccccc23)n1
  -0.26 | 0.02
- Cc1coc2c1c(C)cc1oc(=O)c(CC(=O)NCCCCCC(=O)O)c(C)c12
  0.27 | 0.48
- Cn1c(COc2ccccc2Br)nc2ccccc21
  0.01 | 0.51
- COC(=O)CCn1nnc(-c2cccs2)n1
  -1.7 | 1
- O=C(Nc1ccccc1)c1cccc(S(=O)(=O)NCc2ccco2)c1
  0.99 | 0.75
- Cc1nn(C(=O)c2cccc([N+](=O)[O-])c2)c(C)c1Br
  1.4 | 0.63
- CC(C)c1ccc(S(=O)(=O)N2CCC(C(=O)N3CCC3)CC2)cc1
  -1.8 | 0.85
- COc1ccc(C(=O)COC(=O)CCC(=O)Nc2ccc(C(C)=O)cc2)cc1
  -1.3 | 1.6
- NC(=O)CSc1nnc(NC(=O)c2ccc(S(=O)(=O)N3CCOCC3)cc2)s1
  0.09 | 0.86
- Cc1cccc(C)c1Nc1c(-c2ccc(N3CCOCC3)cc2)nc2ncccn12
  -1.2 | 0.01
- CCOc1ccc(CN(C)Cc2cc(=O)oc3cc(C)c(Cl)cc23)cc1
  0.66 | 0.38
- Cc1ccc(OCCCC(=O)Nc2ccc(N3CCOCC3)cc2)c(C)c1
  -0.46 | 0.59
- CCSc1nc2c(c(=O)[nH]1)C(c1cccnc1)C(C(=O)OC(C)C)=C(C)N2 (stereo not given)
  -0.23 | 2.4
- COc1ccccc1CN1CC(C(=O)NCc2cc(F)cc(C(F)(F)F)c2)CCC1=O (stereo not given)
  -0.7 | 0.01
- Cc1ccc(C)c(OCc2cc(C(=O)N3CC[C@H](O)C3)no2)c1
  1.7 | 1.5
- Cc1ccc(CCNC(=O)C2CCC(=O)N2C(C)C)cc1 (stereo not given)
  -0.37 | 0.59
- Cc1oc(-c2cccc(Cl)c2)[n+]([O-])c1C
  -0.02 | 1.7
- COc1ccc(NC(=O)c2cc3n(n2)C(C(F)(F)F)CC(c2ccc(OC)cc2)N3)cc1 (stereo not given)
  -1.6 | 0.16
- O=C(CN1C(=O)c2ccccc2C1=O)Nc1cccnc1
  -0.42 | 0.67
- COc1cc(CCC(=O)OCC(=O)NCC2CCCCC2)cc(OC)c1OC
  2.1 | 0.74
- COc1ccc(NC(=O)c2cccc(NC3=NC4CS(=O)(=O)CC4S3)c2)cc1Cl (stereo not given)
  0.33 | 0.31
- CC(C)OC(=O)c1ccc(N)cc1
  -0.8 | 0.02
- COc1ccc2[nH]cc(C(=O)CN3CCC(C)CC3)c2c1
  -0.29 | 0.99
- Cc1n[nH]c(C)c1CCC(=O)N/N=C/c1cccs1
  0.79 | 0.65
- CCOC(=O)c1c(C)oc2cc(Br)c(O)c(Br)c12
  0.03 | 2.7
- CCC(=O)NC(=S)N1CCN(c2ccc([N+](=O)[O-])cc2Cl)CC1
  0.22 | 0.35
- CN(CC1CCCO1)S(=O)(=O)c1ccc(C(=O)Nc2ccccc2F)cc1 (stereo not given)
  -0.4 | 0.18
- Cc1ccc(N(CC(=O)NC2CCCCC2C)S(=O)(=O)c2c(C)noc2C)cc1 (stereo not given)
  -0.04 | 0.69
- O=S(=O)(Cc1ccccc1)Nc1cccc(F)c1
  -2.2 | 1.6
- CCOC(=O)C(C)(C)Sc1nc2c(cnn2-c2ccc(Cl)cc2)c(=O)[nH]1
  1.6 | 0.03

Screening data deposited in PubChem BioAssay by Johns Hopkins Ion Channel Center.
